Assay outcomes as filed in PubChem.
Vaccinia mCherry – qHTS for Stage-Specific Inhibitors of Vaccinia Orthopoxvirus: mCherry Reporter Primary qHTS. Potency, µM (highest dose often 36.5 µM), without a hit: top-dose activity change, negative = inhibition, hits mostly inhibitors. Vaccinia virus mCherry reporter infection, fluorescence; about a quarter of the inactives have no number. 0.63% of 310,000 active. AID 720579, 2013; active = well fitted inhibition curve with a large enough effect; inconclusive = small, poorly fitted or top-dose-only effect; inactive = no such curve, though single readings can be large or run the other way; tested in A549 cells; also: nearly all actives have a fitted effect of over 35% in size; inactives centre near -10
Vaccinia Venus – qHTS for Stage-Specific Inhibitors of Vaccinia Orthopoxvirus: Venus Reporter Primary qHTS; Vaccinia virus Venus reporter expression, fluorescence; Potency, µM (titrated, usually from 36.5 µM), for inactives: top-dose activity change, negative = inhibition, most hits filed as inhibitors; 0.46% of 330,000 active; AID 720580, 2013; active means well fitted inhibition curve with a large enough effect; inconclusive means small, poorly fitted or top-dose-only effect; inactive means no such curve, though single readings can be large or run the other way; tested in A549 cells; also: nearly all actives have a fitted effect of over 30% in size; inactives centre near -10
Numbers without * were called inactive; i = inactive; ? = inconclusive; nt = no result given; & = joins results of further samples; ! = a repeat was not active; [ ] = remark or other dose. % is scaled to controls: 0 for no effect and ±100 for the full control effect; potency is read from the fitted curve at half-maximal effect. Rows were taken by chance, and some 0.82% of all compounds hit somewhere here.

SMILES	Vaccinia mCherry	Vaccinia Venus
CCOc1ccccc1Nc1nc(-c2cccc(Cl)c2)c2c(n1)-c1ccccc1OC2	i	-8%
CC(C)c1nn2c(=O)cc(COC(=O)c3cccc(NC(=O)c4cccs4)c3)nc2s1	-12%	-3%
Cn1c(CCNC(=O)c2ccccc2F)nnc1SCC(=O)Nc1ccccc1F	i	-11%
Cc1cc(C)cc(C(O)c2ncc(-c3ccc(F)cc3)[nH]2)c1 (stereo not drawn)	21%	-3%
Cc1ccc(NC(=O)Cn2c(-c3ccc4c(c3)OCO4)cn(-c3ccccc3)c2=O)cc1C	-3%	-7%
N#C/C(=C\c1c(N2CCC(C(N)=O)CC2)nc2ccccn2c1=O)C(=O)NCc1ccco1	-14%	-9%
COc1cccc(-c2nn(-c3ccccc3)cc2CN(C)Cc2ccno2)c1	-6%	-8%
CCCCCCOC(=O)Cc1c(C)nc(-c2ccccc2)[nH]c1=O	nt	-22%
CCOC(=O)C(C)Oc1ccc2c(CC)cc(=O)oc2c1C (stereo not drawn)	nt	-29%
O=C(O)Cn1nc(N2CCN(c3ccccc3)CC2)ccc1=O	7%	5%
Cc1ccc(C)c(OCc2nnc(NC(=O)c3ccco3)s2)c1	-16%	-4%
COc1ccc(N2CC(NC(=O)C(=O)c3c(C)[nH]c4ccccc34)CC2=O)cc1 (stereo not drawn)	-8%	1%
COc1ccc(C)cc1S(=O)(=O)N1CCCC(N2CCN(c3ccccc3)CC2)C1 (stereo not drawn)	-24%	-18%
Cc1ccc2nc(SCC(=O)c3ccc(Cl)s3)[nH]c2c1	-2%	-6%
O=C1c2ccccc2-c2ccccc2NC1O (stereo not drawn)	i	-4%
COc1ccc(CN2C(=O)CC(Cc3cc(C)cc(C)c3)C2=O)cc1OC (stereo not drawn)	i	-13%
Cc1ccc(C(=O)CCC(=O)NC2CCCC(C)C2C)cc1 (stereo not drawn)	-13%	-21%
CC(=O)Nc1ccc(S(=O)(=O)NCCSCc2ccc(Cl)cc2Cl)cc1	?	?
O=C(CSc1nnc2ccccn12)Nc1ccccc1Cl	i	9%
COc1ccc(CCN(Cc2ccccn2)C(=S)Nc2cccc(C)c2)cc1OC	i	-3%
CC(C)CC(COCc1ccc([N+](=O)[O-])cc1)N1CCN(C(=O)c2ccc(C(F)(F)F)cc2)CCC1=O (stereo not drawn)	?	?
COC(=O)NCC(c1cccnc1)N1CCN(c2ccc(F)cc2)CC1 (stereo not drawn)	-9%	-9%
COc1ccc(C2c3c(oc4ccccc4c3=O)C(=O)N2Cc2ccc3c(c2)OCO3)cc1 (stereo not drawn)	-10%	-5%
COCCCNCCOCCOc1ccc(Cl)cc1Br	-11%	-28%
CC(C)(C)c1cc(NCc2ccccn2)n2ncc(-c3ccccc3)c2n1	-3%[7.34 µM]	-3%[7.34 µM]

Continuation.
SMILES	Vaccinia mCherry	Vaccinia Venus
CC1CCN(C(=O)c2[nH]cnc2C(=O)N[C@@H](CCCCNC(=O)OC(C)(C)C)C(=O)OC(C)(C)C)CC1	i	-21%
N#Cc1ccc(C(=O)NCC(c2ccco2)N2CCCC2)cc1 (stereo not drawn)	-9%	3%
Clc1ccc(C(c2ccc(Cl)cc2)n2cc[n+](CC(OCc3ccc(Cl)cc3Cl)c3ccc(Cl)cc3Cl)c2)cc1 (stereo not drawn)	?	11µM*
Cc1csc(NC(=O)CSc2nc(C)nc3c2c(=O)n(C)c(=O)n3C)n1	24%	-10%
Cc1ccccc1SCC(=O)OCC(=O)Nc1sccc1C(N)=O	-14%	-18%
Cc1ccc(SCc2nc(N)nc(Nc3ccccc3C)n2)cc1C	-7%	-28%
CCOC(=S)N/C(=N\S(=O)(=O)c1ccccc1)c1ccccc1	i	-7%
COc1ccc(-c2nc3sc(CCNC(=O)Cc4ccccc4)c(C)n3n2)cc1	-16%	-13%
Cn1c(=O)c2ncn(CC(=O)NC3CCCCCC3)c2n(C)c1=O	-6%	-3%
COc1cccc(N2C(=O)C3CCCN3C2c2ccc(N(C)C)cc2)c1 (stereo not drawn)	-10%	0%
COC(=O)c1cc(C)ccc1OCc1ccc([N+](=O)[O-])cc1	-8%	-12%
Cc1cccc(N(CC(=O)NC2CCCC2)C(=O)CCC(=O)Nc2cc(C)on2)c1	-15%	-3%
COC(=O)[C@H](CC(C)C)NCc1cccc(CN[C@@H](CC(C)C)C(=O)OC)c1	i	-3%
COc1cc2c(NC3CCN(C(C)C)CC3)nc(N3CCCN(C)CC3)nc2cc1OCCOCCN1CCCC1	?	3.5µM*
CC1CCC(C(C)C)C(OC(=O)COC(=O)c2ccc(=O)[nH]c2)C1 (stereo not drawn)	-20%	-21%
COc1ccc(CN2CCCN(CC(=O)Nc3cc(C)ccc3C)S2(=O)=O)cc1	-7%	-15%
NC1=NC(=O)/C(=C\c2ccsc2)S1	-20%	1%
CCOc1ccc(OCC)c(NC(=O)C2CCN(S(=O)(=O)c3ccc4c(c3)CC(C)N4C(C)=O)CC2)c1 (stereo not drawn)	?	-29%&-11%
Cc1ccc(NC(=O)CSc2nc3ccc(NC(=O)CCc4ccccc4)cc3s2)c(C)c1	-14%	-10%
COc1ccccc1Nc1ccc(N)cc1	-14%	-5%
CCOC(=O)N1CCN(C(=O)c2ccc3c(c2)N(CC)CCS3)CC1	15%	-7%
CC(C)NC(=O)C1(C)CN(S(C)(=O)=O)CC(=O)N1Cc1cccs1 (stereo not drawn)	-36%	-16%
CC(=O)Nc1ccc(NC(=O)C(C)OC(=O)/C(C#N)=C/c2ccc(N(C)C)cc2)cc1 (stereo not drawn)	i	0%
O=C(Nc1cccc(C(=O)NC2CC2)c1)c1ccccc1	?	-3%
Cc1cc(C)c(C)c(S(=O)(=O)Nc2ccccc2C(=O)NN2CCOCC2)c1C	-10%	-10%

Brought forward from above: 2 compounds, then new ones.
SMILES	Vaccinia mCherry	Vaccinia Venus
O=C(Nc1cccc(C(=O)NC2CC2)c1)c1ccccc1	?	-3%
Cc1cc(C)c(C)c(S(=O)(=O)Nc2ccccc2C(=O)NN2CCOCC2)c1C	-10%	-10%
O=C1C2(c3ccccc3)CN(CCO)CC1(c1ccccc1)CN(CCO)C2	nt	22%
C=CCn1c(SCC(=O)Nc2sc(C)c(C)c2C(=O)OCC)nnc1-c1sc(N)nc1C	nt	-40%
CC(OC(=O)c1ccc(NC(=O)CC#N)cc1)C(=O)Nc1ccc(S(=O)(=O)N2CCCC2)cc1 (stereo not drawn)	-15%	-2%
CC1CCCC(C)N1C(=O)CSc1nnc(C2CCCCC2)o1 (stereo not drawn)	i	-12%
COc1cccc(-n2c(SCC(N)=O)nnc2-c2ccco2)c1	-3%	-17%
O=C1C=CC(=O)C(C2=C3C(=O)N(CCc4ccccc4)CC(=O)N3CCC2)=C1	-12%	0%
CNC(=O)COc1coc(CN2CCN(c3ccccc3)CC2)cc1=O	-13%	5%
Cc1ccccc1Cn1c(CN2CCCC(C)C2)nc2c1c(=O)n(C)c(=O)n2C (stereo not drawn)	-8%	-9%
C=C1C(=O)O[C@@H]2C[C@@H](C)[C@@H]3C=CC(=O)[C@@]3(C)[C@@H](O)[C@H]12	?	10µM*!
O=C1CSC(c2ccccc2F)N1c1cc(Cl)ccc1O (stereo not drawn)	-21%	-20%
COc1ccc2[nH]c(=O)c(-c3nnn(-c4ccc(F)cc4)n3)cc2c1	-10%	-19%
CC1=C/C(=C\c2ccc3c(c2)OCO3)C(=O)S1	-7%	0%
CCN(CC)c1ccc(NC(=O)c2cccc(C)c2)cc1S(=O)(=O)Nc1ccccc1OC	-1%	-7%
CN1C2C=C3C(C#N)=C(N)C(C#N)(C#N)[C@H](c4c(F)cccc4F)[C@H]3C1CC2 (stereo partly drawn)	-22%	-15%
Cc1cc(C(=O)N2CCC2(C)C(=O)O)nn1C(C)(C)C (stereo not drawn)	i	-7%
c1ccc(NC2=NCCN2CCCC2CCCCC2)cc1	?	?
C[C@H](O)[C@@H]1C(=O)N2CCc3ccc(-c4cccc(F)c4)cc3[C@@H]2C[C@@H]1N(C)S(=O)(=O)c1ccccc1	?	-15%
COc1cccc(CNC(=O)C2CCN(S(=O)(=O)c3cn(C)cn3)CC2)c1	-11%	-9%
CC(C)C[C@@H](CN)NC(=O)c1nc[nH]c1C(=O)N[C@@H](Cc1c[nH]c2ccccc12)C(=O)CNC[C@H](C)NC(=O)c1nc[nH]c1C(=O)N[C@@H](CC(=O)O)C(=O)O	-13%	-2%
CSc1ccccc1NC(=O)CN(C)CC(=O)Nc1ccc(Cl)cc1[N+](=O)[O-]	3%	1%
COc1ccc(NC(=O)CSc2nnc(-c3ccco3)n2C)cc1	nt	-12%
COc1ccc(C(=O)NCCN2Cc3cc(C)ccc3OC(C)C2)c(OC)n1 (stereo not drawn)	-1%	2%
CC(=O)O[C@@H](Cc1ccc(O)cc1)C(=O)CC(C)C	-7%	-1%
CCCOC(=O)CSc1nc(N)c(C#N)c(-c2ccco2)c1C#N	-18%	-13%
Cc1ccc(S(=O)(=O)Nc2ccc(C(=O)NCc3ccncc3)cc2)cc1	-13%	-19%

(continued)
SMILES	Vaccinia mCherry	Vaccinia Venus
O=C(Nc1cccc(S(=O)(=O)c2cccc(NC(=O)c3ccco3)c2)c1)c1ccco1	7%	-14%
COC(=O)c1ccc(CNC(=O)N2CCN(S(=O)(=O)c3ccc(C)cc3)CC2)cc1	-6%	-4%
CCCC(=O)Nn1cnc2c(c1=O)C1(CCCC1)Cc1ccccc1-2	-22%	-8%
Cc1ccc(S(=O)(=O)N2CCOCC2)cc1NC(=O)C1CC(=O)N(c2ccc3c(c2)OCCO3)C1 (stereo not drawn)	20%	-12%
CCCOc1ccc(N2C(=O)CC(NCC#N)C2=O)cc1 (stereo not drawn)	-22%	-7%
CCc1ccc(-n2c(O)c(C=NCCN(CC)CC)c(=O)[nH]c2=O)cc1	-12%	-15%
COc1ccccc1/C=N/NC(=O)c1cc2c(ccc3ccccc32)o1	-25%	-9%
Cn1c(CNc2ccc(F)cc2)nc2ccccc21	-17%	-12%
COC(=O)C1CCN(CC(N)=O)CC1	nt	-20%
COC(=O)[C@@H]1C[C@@]2(O)[C@H](O)[C@H](O)[C@H](O)C[C@H]2N1Cc1ccc(C(C)(C)C)cc1	i	-24%
NC(=O)c1nsc(C(=O)N(c2ccccc2)C(C(=O)NC2CCCC2)c2ccncc2)c1N (stereo not drawn)	4%	-5%
O=C(Nc1ccccc1Cl)c1ccc(Cl)cc1Cl	i	-8%
COc1ccc2c(c1)C1(Nc3ccccc3-c3nc4ccccc4n31)C(=O)N2C (stereo not drawn)	nt	-23%
CCOc1ccc(Nc2nc3c(S(=O)(=O)c4cccc(Cl)c4)nnn3c3ccsc23)cc1	?	?
O=C(CSCc1ccc(Br)cc1)N=Nc1c(O)[nH]c2ccccc12	-22%	-27%
CC(C)CCNC(=O)C1CCN(c2nnc(-n3cccc3)s2)CC1	i	-16%
COc1ccc2sc(N(CCCN(C)C)C(=O)c3nc4ccccc4s3)nc2c1	-4%	-12%
COC(=O)C1=C(C(=O)OC)C(C(=O)OC)N2C=CC=CC2=C1C(=O)OC (stereo not drawn)	20%	7%
Cc1cc(C)n(C(C)CC(=O)Nc2cccc(C#N)c2)n1 (stereo not drawn)	-2%	-4%
CC(=O)NC1=NN(C(C)=O)C(C)(CS(=O)(=O)c2ccc(Cl)cc2)S1 (stereo not drawn)	i	-14%
CC(C)(C)c1ccccc1NC(=O)Cn1cnc2cc([N+](=O)[O-])ccc2c1=O	-23%	-3%
CCOc1ccc(Nc2nc(-c3sc(N)nc3C)cs2)cc1	-13%	-6%
O=C(CSc1nc(=O)n(CCCN2CCOCC2)c2c1CCC2)Nc1ccc(F)cc1F	-16%	-14%
O=C1CCC(C(=O)N2CCC(O)CC2)CN1CCc1ccc(Cl)cc1 (stereo not drawn)	-10%	-9%
CC(=O)c1cc(-c2ccc(F)cc2)n(CC(=O)NC2CCCCCC2)c1C	-9%	-4%

Filtered by structure, the compounds so far with an NH in an aromatic ring
SMILES	Vaccinia mCherry	Vaccinia Venus
Cc1cc(C)cc(C(O)c2ncc(-c3ccc(F)cc3)[nH]2)c1 (stereo not drawn)	21%	-3%
CCCCCCOC(=O)Cc1c(C)nc(-c2ccccc2)[nH]c1=O	nt	-22%
COc1ccc(N2CC(NC(=O)C(=O)c3c(C)[nH]c4ccccc34)CC2=O)cc1 (stereo not drawn)	-8%	1%
Cc1ccc2nc(SCC(=O)c3ccc(Cl)s3)[nH]c2c1	-2%	-6%
CC1CCN(C(=O)c2[nH]cnc2C(=O)N[C@@H](CCCCNC(=O)OC(C)(C)C)C(=O)OC(C)(C)C)CC1	i	-21%
CC1CCC(C(C)C)C(OC(=O)COC(=O)c2ccc(=O)[nH]c2)C1 (stereo not drawn)	-20%	-21%
COc1ccc2[nH]c(=O)c(-c3nnn(-c4ccc(F)cc4)n3)cc2c1	-10%	-19%
CC(C)C[C@@H](CN)NC(=O)c1nc[nH]c1C(=O)N[C@@H](Cc1c[nH]c2ccccc12)C(=O)CNC[C@H](C)NC(=O)c1nc[nH]c1C(=O)N[C@@H](CC(=O)O)C(=O)O	-13%	-2%
CCc1ccc(-n2c(O)c(C=NCCN(CC)CC)c(=O)[nH]c2=O)cc1	-12%	-15%
O=C(CSCc1ccc(Br)cc1)N=Nc1c(O)[nH]c2ccccc12	-22%	-27%
